AID504770 – growth inhibitors of E. coli YBA685 in a screen for V. cholerae RctB (chromosome II replication) inhibitors. AID 504770. 130,000 compounds, 0.27% hits. z-score (test concentration not listed). E. coli YBA685 rctB-dependent plasmid, OD600 growth, 3 h; hits give low values;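 active means z-score under -2 on both plates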;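 further: wells of about 30 µL received 100 nL stock; score is relative to mean and SD of the test wells; the first replicate is given; strong numbers were not always called active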
Ba CapD inh – inhibitors of Bacillus anthracis CapD enzyme. purified CapD enzyme, fluorescence intensity read-out; hits give low values; some hits fall short of the stated cut. z-score (no concentration beside the values). 140,000 compounds, 0.23% hits. AID 492967;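 active means z-score under -4 in either of two replicates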;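 further: stock transfer was 100 nL into about 40 µL; score is relative to mean and spread of the plate; one replicate is shown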
Starred values were filed as active, the others as inactive; nt = not tested or not shown.

nr	SMILES	AID504770	Ba CapD inh
1	COc1ccccc1C(=O)ON1C(=O)c2ccccc2C1=O	-1	8.9
2	COc1ccccc1/C=C/C1=NC(=C\c2ccc3c(c2)OCO3)/C(=O)O1	-0.25	-0.12
3	O=S(=O)(c1ccccc1)N1CCN(c2nnnn2-c2ccccc2)CC1	-0.65	nt
4	CC(C)(C)N(Cc1ccccc1)C(=O)COc1ccccc1	0.15	-0.23
5	CCOC(=O)c1ccc(N/C=C(\C(C)=O)c2ccc(OC)c(OC)c2)cc1	nt	-0.12
6	NC(=O)c1ccccc1Br	nt	0.3
7	N/C(=N/c1nc2ccccc2o1)NC(=O)Nc1ccc(Cl)c(Cl)c1	0.05	1.4
8	CCOC(=O)CSc1nnc(Cc2ccc(OCC)cc2)n1C	-0.55	-0.37
9	CC(C)NC(=O)Cn1c(SCC(=O)N2CCc3ccccc32)nc2ccccc21	-0.5	nt
10	CCCCn1c(C(C)NC(=O)CC)nc2ccccc21 (centres undefined)	0.8	0
11	C=CCN(CC=C)S(=O)(=O)c1ccc(C(=O)N2CC(C)CC(C)C2)cc1 (centres undefined)	0.2	nt
12	Clc1nncc2ccccc12	0.1	nt
13	O=C(NCc1ccccc1)C1CCC(Cn2c(=S)[nH]c3ccccc3c2=O)CC1 (centres undefined)	1.1	0.99
14	Cc1nn(-c2ccccc2)c(C)c1COC(=O)c1ccc(S(=O)(=O)N(C)C)cc1	0.05	nt
15	CN(C)c1ccc(CNc2ccccn2)cc1	-0.25	-0.94
16	Cc1ccccc1OCCn1cnc2c(N)ncnc21	-0.45	-0.12
17	COc1ccc2c(Cl)c(C(=O)N3CCN(CCN4C(=O)c5cccc6cccc(c56)C4=O)CC3)sc2c1	nt	-0.16
18	Clc1cc2c(c3ncccc13)OCN(CCc1ccccc1)C2	-2.5	nt
19	Cc1onc(-c2ccccc2Cl)c1C(=O)N(Cc1ccc(N(C)C)cc1)C(C)C	nt	0.97
20	O=C(Nc1c(C(=O)N2CCOCC2)cnn1-c1ccccc1)c1ccccc1F	-0.6	nt
21	COc1ccc(CCC(O)C2(O)CCCCC2)cc1 (centres undefined)	1.8	-0.36
22	COc1ccc(/C=C/C(=O)N2CCN(C(c3ccccc3)c3ccccc3)CC2)cc1OC	-0.1	4.6
23	CCOC(=O)c1csc(-c2sc(SC)c3c2CCCC3=O)n1	-0.65	-0.045
24	CCn1c(=NC(=O)c2ccc(S(=O)(=O)N(C)C)cc2)sc2ccccc21	-0.2	0.3
25	COc1ccc(OC)c(NC(=O)CCNS(=O)(=O)c2cccc3nonc23)c1	1.2	-0.49
26	c1cc(-c2ccsc2)[nH]n1	0.45	0.39
27	Cc1nc2cc(C(=O)NCc3ccc4c(c3)OCO4)ccc2n1-c1ccc(Br)cc1	nt	0.48
28	CC1CC(=O)N(c2ccccc2)N1 (centres undefined)	2.2	0.43
29	CNc1nnc(C(F)(F)F)s1	nt	-0.34
30	CC(C)CC(=O)NC(=S)N1CCCCCC1	-1.1	-0.8
31	CCOC(=O)C1CCN(S(=O)(=O)c2ccc3c(c2)SCC(=O)N3)CC1	-0.35	-0.14
32	CCCCOC(=O)C1=C(C)NC2(O)c3ccccc3C(=O)C12O (centres undefined)	nt	-0.44
33	N#Cc1c(=O)n(O)c2ccccc2[n+]1[O-]	-4.3*	-1.1
34	COc1cc2ncnc(NCc3ccc(Cl)cc3Cl)c2cc1OC	nt	1.7
35	Cc1ccccc1-n1nc(C)c(CC(=O)O)c1C	0.35	nt
36	COC(=O)c1ccccc1NC(=O)CC1Nc2ccccc2NC1=O (centres undefined)	0.15	nt
37	Cc1oc2c(Cl)c(Cl)c(O)c(CN(C)C)c2c1C(=O)c1ccc(Cl)cc1	0.3	0.065
38	CN(C)CCN(C)C1CCc2ccccc2C1 (centres undefined)	-0.05	0.39
39	O=C(N/C(=C/c1ccc2c(c1)OCO2)C(=O)N1CCCC1=O)c1ccco1	-1.6	-1.3
40	O=C(CSc1nnnn1C1CCCC1)NC1CCCc2ccccc21 (centres undefined)	-0.2	nt

Rewritten with one line to a screen: entries from further up.
21	COc1ccc(CCC(O)C2(O)CCCCC2)cc1 (centres undefined)
22	COc1ccc(/C=C/C(=O)N2CCN(C(c3ccccc3)c3ccccc3)CC2)cc1OC

| Screen / compound no. | 21 | 22 |
| --- | --- | --- |
| AID504770 | 1.8 | -0.1 |
| Ba CapD inh | -0.36 | 4.6 |

Returning to the listing with the four entries that preceded the break.
nr	SMILES	AID504770	Ba CapD inh
37	Cc1oc2c(Cl)c(Cl)c(O)c(CN(C)C)c2c1C(=O)c1ccc(Cl)cc1	0.3	0.065
38	CN(C)CCN(C)C1CCc2ccccc2C1 (centres undefined)	-0.05	0.39
39	O=C(N/C(=C/c1ccc2c(c1)OCO2)C(=O)N1CCCC1=O)c1ccco1	-1.6	-1.3
40	O=C(CSc1nnnn1C1CCCC1)NC1CCCc2ccccc21 (centres undefined)	-0.2	nt
41	CN(C)Cc1c(O)ccc2occ(C(=O)c3ccc(F)cc3)c12	-0.45	-0.28
42	c1ccc2c(Oc3ccc4c(c3)OCO4)nncc2c1	0.9	0.22
43	CCOc1cc(CNCc2nnc3ccccn23)ccc1OCC(=O)N1CCCCC1	1	nt
44	CC1=CC(OC(=O)Nc2ccc(Cl)cc2)CC(C)(C)C1 (centres undefined)	0.4	nt
45	C=CCn1c(NCc2ccccc2O)nc2ccccc21	-1.2	0.18
46	CCOC(=O)C1=C(N)n2c(s/c(=C\c3ccncc3)c2=O)=C(C#N)C1c1ccncc1 (centres undefined)	nt	-0.33
47	CCCCN1C(=O)c2ccc(C(=O)OC3CCCCC3=O)cc2C1=O (centres undefined)	0.15	nt
48	O=C1/C(=C/c2cccs2)S/C(=N\n2cnnc2)N1c1ccccc1	nt	-0.96
49	Cc1nn(C)cc1CNC(=O)CCC(=O)O	2	0.95
50	O=C(NC(=S)Nn1cnnc1)c1ccc(Cl)c(S(=O)(=O)N2CCCCCC2)c1	-0.55	nt
51	CCOC(=O)C1=NNC2C(=O)N(c3ccc(Cl)cc3Cl)C(=O)C12 (centres undefined)	nt	0.42
52	Cc1cccc(-c2nnc(CSc3nnc(C4CC4)n3-c3ccccc3)o2)c1	-0.3	nt
53	Cc1ccc(/C=C2\SC(=O)N(CCN3CN(CCO)c4nc5ccccc5n4C3)C2=O)cc1	-1.3	nt
54	CCOc1ccc(/C=N/n2c(C)nc3ccccc3c2=O)cc1	0.3	-0.41
55	O=C1c2ccccc2S(=O)(=O)N1CC(O)CN1c2ccccc2Sc2ccccc21 (centres undefined)	0.85	0.24
56	CSc1nc2ccc3nc(NC(=O)c4ccccc4Cl)sc3c2s1	-0.8	0.46
57	N#Cc1ccc(OCc2nnc3n2CCC3)cc1	-1.1	nt
58	CCn1nc(CCC(=O)O)c2ccccc2c1=O	-0.5	nt
59	CC(=O)C1=NN(c2ccc(Br)cc2)C2(S1)c1ccccc1C(c1ccc(C(C)C)cc1)=NN2c1ccccc1 (centres undefined)	nt	-0.98
60	CC1(C)CC(=O)C2=C(C1)N(Cc1ccco1)C(=O)NC2(C(F)(F)F)C(F)(F)F	0.8	-0.025

Two compounds picked at random from those above, as already listed:
nr	SMILES	AID504770	Ba CapD inh
49	Cc1nn(C)cc1CNC(=O)CCC(=O)O	2	0.95
47	CCCCN1C(=O)c2ccc(C(=O)OC3CCCCC3=O)cc2C1=O (centres undefined)	0.15	nt

Continued:
nr	SMILES	AID504770	Ba CapD inh
61	CCN(CCO)c1ccccc1	-0.9	0.035
62	CCOC(=O)/C(C#N)=C\c1ccc(Br)s1	-0.75	nt
63	O=c1cc(CO)oc(C(Nc2nccs2)c2ccc(F)cc2)c1O (centres undefined)	-1.1	-0.72
64	O=C1CCCc2nc3nc(-c4ccncc4)nn3cc21	0.1	nt
65	O=C(NCC1CC1)Nc1c[nH]c2ccccc2c1=O	-0.65	nt
66	CC(C)c1c(O)nc(SCCN2CCOCC2)[nH]c1=O	-0.05	nt
67	O=C1C(c2ccccc2)C(c2cccnc2)NC(c2cccnc2)C1c1ccccc1 (centres undefined)	-0.2	0.18
68	CCN(CC1COc2ccccc2O1)S(=O)(=O)c1ccc(C)cc1 (centres undefined)	-0.2	0.43
69	CN(C)c1ccc(/C=N/NC(=S)NC(C)(C)C)cc1	-0.65	29
70	Cc1onc(-c2ccccc2)c1C(=O)N1CCN(C(=O)C2COc3ccccc3O2)CC1 (centres undefined)	1.1	-0.33
71	CCN(CC)CCN=Cc1c(O)n(-c2ccccc2Cl)c(=O)c2ccccc12	-0.15	-0.065
72	CC1CC(C)(C)CC2(C1)NC(=S)N(c1ccccc1)N2 (centres undefined)	nt	-0.52
73	CC(C)(C)OC(=O)NC1CCN(S(=O)(=O)c2ccc(OC(F)(F)F)cc2)CC1	-0.05	0.095
74	CCSc1ncnc2c1c(-c1ccccc1)cn2-c1cccc(F)c1	nt	0.15
75	Cc1noc(C)c1COc1cccc(C(=O)N2CCCSC2=Nc2ccccc2)c1	-0.25	nt
76	O=C1CC(c2ccccc2)Oc2ccc(O)cc21 (centres undefined)	-0.8	3.2
77	CC1=C(C(=O)Nc2ccc(CC(=O)NCc3ccc4c(c3)OCO4)cc2)SCCO1	-0.5	0.085
78	O=C(Cn1cnc2c(oc3ccccc32)c1=O)NCCc1ccccc1	-0.5	nt
79	OC1(c2ccccc2)CCNC1 (centres undefined)	1	nt
80	CCOC(=O)c1c(NC(=O)C2C(C)(C)C2(C)C)sc2c1CCC2	1.6	-0.08
81	CCOc1cc(/C=C2/SC(=Nc3ccccc3C(F)(F)F)NC2=O)ccc1O	-1.2	-0.29
82	Cc1ccc2cc(CN(CC3CCCO3)C(=O)C3CCC3)c3nnnn3c2c1 (centres undefined)	-0.45	nt
83	O=C(Nc1cccc(C(=O)N2CCCC2)c1)C1=CSCCO1	0.8	-0.8
84	CCOC(=O)c1ccc(CNC(=O)Cn2nnc(-c3ccc(C)cc3)n2)o1	-0.75	0.69
85	CCOc1ccc(-n2c(=S)sc3c(=O)n(-c4ccccc4)c(=S)[nH]c32)cc1	nt	-2
86	CC(=C1C(=O)c2ccccc2C1=O)N1CCN(CCN=CC2=C(O)CC(c3ccc(C)cc3)CC2=O)CC1 (centres undefined)	0.3	-0.61
87	CC(C)(C)c1ccc(NC(=O)OCCCCCc2ccccc2)cc1	nt	-0.8
88	Cc1cc(C)n(-c2ncnc3scc(-c4ccccc4)c23)n1	0.3	0.3
89	C=CCn1c(O)c(C2=c3ccccc3=NC2=O)c2ccccc21	0.15	-1.5
90	COc1ccc(-c2csc(-c3cccs3)n2)cc1OC	-0.2	nt
91	COc1ccccc1Nc1ncc(C(=O)N(C)c2ccc(Cl)cc2)c2ccccc12	-1.1	0.4
92	O=S1(=O)CCC(SCc2nc3ccccn3c2Br)C1 (centres undefined)	-0.6	1.2
93	COC(=O)c1ccc(C=Nc2ccc3oc(-c4cccc(OC)c4)nc3c2)cc1	-0.7	-0.36
94	CNC(=O)CSCC(=O)Nc1cc(OC(C)C)c(Cl)cc1Cl	nt	0.095
95	Cc1cccc(C(=O)N(C(=O)c2cccc(C)c2)c2nnnn2C)c1	-0.6	-0.49
96	CCOC(=O)Cc1nnc(NC(=O)C(CC)Sc2nc3ccccc3[nH]2)s1 (centres undefined)	0.45	0.21
97	CCc1c(C(=O)NCc2cnn(C)c2)csc1C	-0.85	0.46
98	CCOC(=O)c1cc(C(C)(C)C)nc(OC(=O)N(C)C)c1C#N	-0.6	6.2
99	Cc1cc(C)nc(NCCS)n1	0.5	nt
100	CC1Cc2cc(S(=O)(=O)Nc3ccc(F)cc3)ccc2N1C(=O)C1CCC1 (centres undefined)	-0.25	-0.17
101	Cc1c(Cl)cccc1NC(=O)CSc1nccn1C	0.1	0.12
102	CCOC(=O)C1=C(C)NC2=C(C(=O)CC(c3ccc(OC)c(OC)c3)C2)C1c1cccc(Br)c1 (centres undefined)	nt	24
103	O=C(O)c1ccc(-n2cc(-c3cnccn3)cn2)cc1	nt	0.14
104	C#CCNc1cc(Cl)ccc1Cl	0.2	-0.79
105	CC(=O)Oc1cc2oc(=O)cc(-c3ccccc3)c2cc1Cl	0.75	2.6
106	O=C(OCC(=O)N1CCOCC1)c1ccc(Cl)c(S(=O)(=O)N2CCCC2)c1	0.4	nt
107	CCN1c2ccccc2NC1SCC(=O)Nc1ccc(Cl)cc1 (centres undefined)	-1.1	0.14
108	O=C(Sc1ccccn1)c1csc(C2COc3ccccc3O2)n1 (centres undefined)	0	-0.09
109	Cc1c(C(=O)OCC(=O)N2CCCC2)oc2ccccc12	-0.45	nt
110	COc1ccc(NC(=O)c2cccc(S(=O)(=O)N3CCN(C)CC3)c2)c(OC)c1	0.25	nt
111	COc1c2c(nc3ccccc13)OC(C(C)(O)COC(C)=O)C2 (centres undefined)	-0.75	0.36
112	C[C@@H]1CN(C2CCC(C#N)(c3ccc(F)cc3)CC2)CC[C@]1(C(=O)O)c1ccccc1 (some centres undefined)	nt	-2.1
113	CCC(Sc1nc2ccncc2[nH]1)C(=O)N(CC)c1ccccc1 (centres undefined)	-0.1	0.06
114	COc1cccc(C2NC(=O)NC(C)=C2C(=O)c2ccccc2)c1 (centres undefined)	1.4	nt
115	COC(=O)NC(O)C(=O)c1ccccc1 (centres undefined)	1.9	-0.3
116	CSc1nnc2c(n1)[nH]c1ccccc12	0.75	0.16
117	O=C(CNc1ccccc1N1CCCCC1)N1CCc2ccccc21	0.3	nt
118	CS(=O)(=O)Nc1nnc(SCCCc2ccccc2)s1	-0.3	-0.33

Individual results from the list.
Entry of no. 22 in AID504770: -0.1
Entry of no. 65 in AID504770: -0.65

From PubChem BioAssay

Compounds as they come; overall some 0.41% were active at least once.
